H5N1 CPE – MDCK cell protection from H5N1 avian flu. inhibition, % at 50 µM. cytopathic effect, luminescence, 72 h; active compounds read high; no value below 0 was filed and about half of the inactive calls have no number; reference of the scale not given here. actives 0.07% (n = 96,000). AID 740, 2007; in the data active = inhibition above about 25%
Active calls of the source: *; i = inactive. This is a subset. The share of hits here may be higher or lower than overall.

SMILES | H5N1 CPE
CCN(CC)C(=O)N1c2ccccc2CC(N(CC)CC)c2ccccc21 (configuration not stated) | 0.2
CCN1CCC2(CC1)NC(CO)(CO)CO2 | 0.1
COc1ccc(N2CCN(c3cc(C)c4ccc(O)cc4n3)CC2)cc1 | i
CCOc1cc(C(=O)Nc2ccccc2N2CCN(S(C)(=O)=O)CC2)cc(OCC)c1OCC | i
CC1Cc2ccccc2N1C(=O)CNCCCN(C)C (configuration not stated) | i
O=C(CSc1n[nH]c(-c2ccccc2)n1)NC(=O)NCc1ccco1 | 0.4
CCS(=O)(=O)N1CCCC(c2nc(-c3cccc(OC)c3)no2)C1 (configuration not stated) | i
O=C(NC1(C(F)(F)F)N=C2SCCN2C1=O)c1ccco1 (configuration not stated) | 0.0
Cc1cccc(NC(=O)CCN2C(=O)c3ccccc3C2=O)n1 | i
CC(c1ccco1)N(C(=O)Nc1ccccc1)C1CCCCC1 (configuration not stated) | 0.4
COCCCNC(=O)c1ccccc1Oc1ccccc1 | i
COc1ccc(OCC#CCNC(C)(C)C)cc1 | i
CCOC(=O)c1cc(C(=O)OCC)cc(-n2cc(O)c(C(=O)OCC)n2)c1 | i
CC(C)CNC(=S)NC1CC2CCC(C1)N2Cc1ccccc1 (configuration not stated) | i
CN(C)CCNC(=O)c1cc2c(s1)-c1ccccc1OC2 | i
CCCCN(CCCNC(=O)C1CCN(S(=O)(=O)N2CCOCC2)CC1)c1ccccc1 | 0.1
COc1cc(-c2ccccc2)nc(N)n1 | 0.3
CC1CN(C(=O)CCn2c(=O)oc3ccccc32)CC(C)O1 (configuration not stated) | 0.5
CCN(CCCNC(=O)C1CCN(S(=O)(=O)N2CCOCC2)CC1)c1cccc(C)c1 | 0.0
FC(F)(F)c1cc(-c2ccco2)nc(NCc2cccs2)n1 | i
Cn1c(C(=O)NCc2cccnc2)cc2sccc21 | i
CCOC(=O)c1nnn(-c2nonc2N)c1C | 0.1
CC1=C(C(=O)Nc2ccccc2)C(c2ccco2)C(C#N)=C(SCc2ccccc2)N1 (configuration not stated) | 0.4
CCOC(=O)Cn1c(S(=O)(=O)Cc2ccc(Cl)cc2)nc(-c2ccccc2)c1-c1ccccc1 | 2.6
Cc1cc(N2CCCCC2)n2ncc(-c3ccccc3)c2n1 | i
CC(C)OC(=O)n1c(=S)oc2ccccc21 | 1.6
CSCC[C@@H](C(=O)O)N1Cc2ccccc2C1=O | 1.2
Cc1noc(C)c1COC(=O)Cn1c(C)nc2ccccc21 | 0.5
O=C(Nn1c(C2CC2)nc2ccccc2c1=O)c1ccco1 | 0.4
CCn1c(O)c(/C=C2\C=Nc3ccccc32)sc1=Nc1ccccc1 | i
O=C(c1ccc(F)cc1)N1CCC(O)(c2cccnc2)CC1 | 0.6
O=C(CCN1C(=O)C2C3C=CC(C3)C2C1=O)Nc1ccccn1 (configuration not stated) | 0.9
CCN(CCCNC(=O)CC(C(=O)N1CCc2ccccc21)n1ccnc1)c1cccc(C)c1 (configuration not stated) | 0.6
CC(C)NS(=O)(=O)c1ccc(NC(=O)C2CC3C=CC2C3)cc1 (configuration not stated) | 0.5
O=C1N/C(=N/Nc2ccccc2)S/C1=C\c1ccccc1 | i
COc1ccc(N2CCN(C(=O)CN(c3ccc(Br)cc3)S(C)(=O)=O)CC2)cc1 | 2.9
COc1ccc(NC(C)c2cc(Cl)ccc2O)cc1 (configuration not stated) | i
Cc1ccc(C2NC(=O)c3ccccc3N2)s1 (configuration not stated) | i
O=C(c1ccccc1)c1nc2ccccc2[nH]c1=O | i
Cn1c(=O)n(CC(=O)Nc2ccc(F)cc2)c2ccccc21 | 0.6

2 of the compounds above, field by field.
> O=C(c1ccc(F)cc1)N1CCC(O)(c2cccnc2)CC1
  H5N1 CPE = 0.6
> O=C(CCN1C(=O)C2C3C=CC(C3)C2C1=O)Nc1ccccn1 (configuration not stated)
  H5N1 CPE = 0.9

Nothing new here: entries from further up.
SMILES | H5N1 CPE
CCN(CC)C(=O)N1c2ccccc2CC(N(CC)CC)c2ccccc21 (configuration not stated) | 0.2
CCN1CCC2(CC1)NC(CO)(CO)CO2 | 0.1
COc1ccc(N2CCN(c3cc(C)c4ccc(O)cc4n3)CC2)cc1 | i
CCOc1cc(C(=O)Nc2ccccc2N2CCN(S(C)(=O)=O)CC2)cc(OCC)c1OCC | i
CC1Cc2ccccc2N1C(=O)CNCCCN(C)C (configuration not stated) | i

Other compounds:
SMILES | H5N1 CPE
c1cncc(-c2nc(-c3cccs3)cs2)c1 | i
CCCCn1c(=S)[nH]c2cc(S(=O)(=O)N3CCCCC3)ccc21 | 8.4
CCOC(=O)COn1c(SCC(=O)OCC)nc2ccccc2c1=O | 1.4
COc1ccc(CCNC(=O)Cn2nnc(-c3ccc(N4CCOCC4)cc3)n2)cc1OC | 0.1
Cc1ccc(N(CC(=O)Nc2cccc(C)c2)S(=O)(=O)c2cccc3nonc23)cc1 | 0.6
COc1cc(C)ccc1OCCCOc1ccccc1Cl | i
CCC(C)(C(=O)NC1CCCC1)N(C(=O)c1cnccn1)c1ccccc1 (configuration not stated) | 1.8
CCc1nc(SCC(=O)N2c3ccccc3CC2C)c2c(C)c(C)sc2n1 (configuration not stated) | 1.8
CN(C)CCNC(=O)Cn1nc(C(F)F)cc1C1CC1 | 0.6
COC(=O)c1ccc(Cn2cnc3ccccc3c2=O)cc1 | i
O=C(NC1CCCCC1)C12CC3CC(C1)CC(n1cncn1)(C3)C2 | 0.2
Cc1cccc(NC(=O)/C=C/c2cccs2)n1 | i
CCOc1ccccc1N(CC(=O)NC(C)(C)C)C(=O)Cn1nnc(-c2ccc(C)o2)n1 | i
COc1cc(NC(=O)NS(=O)(=O)c2ccc(C)cc2)cc(OC)c1 | i
O=C(Nc1nnc(CC(=O)N2CCOCC2)s1)c1cccs1 | 1.1
CCC(c1nnnn1CCc1ccccc1)N(Cc1ccco1)Cc1cc2cccc(C)c2[nH]c1=O (configuration not stated) | i
C=CCOc1cccc(C2/C(=C(\O)c3ccc(F)cc3)C(=O)C(=O)N2CCN(C)C)c1 (configuration not stated) | i
Cc1ccc(CNc2ncc(-c3ccc4c(c3)OCO4)n2C)cc1 | i
CN1c2ccccc2C(O)=C(C(=S)Nc2ccc(Cl)cc2)S1(=O)=O | i
O=C(C1CC1(c1ccccc1)c1ccccc1)N1CCOCC1 (configuration not stated) | 1.2

Grouped by structure: the entries above with a tert-butyl group.
SMILES | H5N1 CPE
COc1ccc(OCC#CCNC(C)(C)C)cc1 | i
CCOc1ccccc1N(CC(=O)NC(C)(C)C)C(=O)Cn1nnc(-c2ccc(C)o2)n1 | i

(listing goes on)
SMILES | H5N1 CPE
CCC(C)(C(=O)NC1CCCCC1)N(Cc1ccco1)C(=O)c1cnccn1 (configuration not stated) | 1.1
CC1CCCN(S(=O)(=O)c2ccc(NC(=O)CCN3C(=O)c4ccccc4C3=O)cc2)C1 (configuration not stated) | 1.5
CCc1c(C(=O)OC)nnc2cc(C)nn12 | 0.3
Cc1ccc(/C=N/N2C(=S)SC(C)(C)C2N(O)C(=O)Nc2ccc([N+](=O)[O-])cc2)cc1 (configuration not stated) | 0.7
COc1cccc(-c2cc(C(=O)Nc3ccccc3SC)no2)c1 | i
CCOc1ccc(NC(=O)CN(C)CC(=O)Nc2ccccc2C#N)cc1OCC | 0.7
COc1ccc(CCNC(=O)C2CCN(S(=O)(=O)N3CC(C)CC(C)C3)CC2)cc1OC (configuration not stated) | 1.7
Cc1c(C(=O)N2CCC3(CC2)OCCO3)oc2ccc(S(=O)(=O)N3CCOCC3)cc12 | 0.7
O=[n+]1c2c(n([O-])c3cc(F)c(F)cc31)CCCC2 | 1.9
Cc1nc(-n2cc(F)c(=O)[nH]c2=O)c2nc(C)oc2n1 | 0.3
CC1(C)CC(=O)C(C=NC2CCCCC2)=C(O)C1 | 0.1
CCN(CC)c1nc2c(s1)C(=O)NCCC2 | i
COC(=O)c1ccc(NC(=O)COc2ccc(C3C(C#N)=C(N)Oc4c3ccc3ccccc43)cc2OC)cc1 (configuration not stated) | 1.0
Cc1nc2c(c(N3CCOCC3)n1)OCC(=O)N2 | i
O=C(Nc1ccc2c(c1)OCO2)c1ccccc1SCC(=O)N1CCCC1 | 0.6
O=C(Nc1ccc(N2CCN(C(=O)c3ccco3)CC2)c(Cl)c1)c1cc2ccccc2o1 | i
Cc1ccc(-c2nn(CC(=O)NCc3cc(-c4nn(C)c(=O)c5ccccc45)ccc3C)c(=O)c3ccccc23)cc1 | i
COc1ccc(Cl)cc1NC(=O)CN(C(=O)c1ccco1)C1CCCCC1 | i
N#Cc1cc(-c2ccccc2)nnc1Sc1ccccc1 | 23.8
COC(=O)CN1C(=O)C2(C(C#N)=C(N)Oc3cc(C)oc(=O)c32)c2ccccc21 (configuration not stated) | 0.2
O=C1c2ccccc2C(=O)N1CCCC(=O)N1CCCc2ccccc21 | 0.9
COc1cccc(NC(=O)c2nnn(Cc3ccc(Br)cc3F)c2N)c1 | i
CCCN(CCC)CCNC(=O)c1cc2c(C)nc3ccccc3c2o1 | 1.6
Cn1c(CSc2nnc(SCc3ccccc3)s2)nc2ccccc21 | i
COc1ccc(-c2nc3ccc(N4CCCC4)cc3c(=O)[nH]2)cc1OC | i
CCS(=O)(=O)N1Cc2ccccc2CC1C(=O)N1CCN(c2cccc(C)c2C)CC1 (configuration not stated) | 2.2
CCN1/C(=C/C(=O)c2ccco2)Sc2ccccc21 | i
COC(=O)C1=C(C(=O)OC)SC2(S1)C(C(=O)OC)=C(C(=O)OC)SC1=C2c2cccc(C)c2NC1(C)C | 1.4
CCCCNC(=O)CSc1nc2cc3c(cc2c(=O)n1CCCN(CC)CC)OCO3 | 2.1
Cc1[nH]c(=O)c(C#N)c(C)c1Br | 1.4
CCn1cc(C(=O)OCC(=O)Nc2ccc(S(=O)(=O)N3CCCC3)cc2)c(=O)c2ccc(C)nc21 | i
COc1cc(C)c(S(=O)(=O)NCc2ccc3c(c2)OCO3)cc1C | 1.5
C=CCn1c(SCC(=O)Nc2nnc(CC)s2)nnc1-c1cccnc1 | i
Cc1[nH]c2ccccc2c1C(=O)COC(=O)C1CC(=O)N(Cc2ccccc2)C1 (configuration not stated) | 1.1
COCCNC(=O)NC(=O)COC(=O)Cc1ccc2c(c1)OCCO2 | 0.7
N#CCCN1CCN(Cn2c3ccccc3c3ccccc32)CC1 | 0.4
COc1cc(OC)c(C2N(c3ccc(Cl)c(Cl)c3)C(=O)C3CCCN32)cc1OC (configuration not stated) | i
NC(=O)CSc1nnc(Cc2ccc3c(c2)OCO3)n1C1CCCCC1 | i
CN(C(=O)c1cc2n(n1)C(C(F)(F)F)CC(c1ccco1)N2)c1ccc(OC(F)(F)F)cc1 (configuration not stated) | i
O=C(OC(C(=O)NCC1CCCO1)c1ccc(F)cc1)c1ccco1 (configuration not stated) | 1.2
CNC(=O)c1ccc(N(Cc2ccccc2)S(C)(=O)=O)cc1 | i
COc1ccc(OC)c(N(CC(=O)NC2CC2)S(=O)(=O)c2ccc(C)cc2)c1 | 0.9
COC(=O)CCN(C(=O)C12CC3CC(CC(C3)C1)C2)c1ccccn1 | 0.8
O=C(NCCc1ccccc1)C1CCCN1C(=O)NCc1ccccc1 (configuration not stated) | i
CCC(=O)N1CCN(c2ccc(Cl)cc2NC(=O)c2ccc(N3CCCC3)c([N+](=O)[O-])c2)CC1 | i
O=C(NCc1ccccc1)c1ccc(F)c(S(=O)(=O)N2CCOCC2)c1 | 0.4
CCOC(=O)c1c(C)nc2c(c1C)/C(=N/O)CC(C)(C)C2 | i
COc1ccccc1CN(CC(=O)NCc1ccco1)C(=O)CNS(=O)(=O)c1ccccc1 | 1.2
CC1=NN(c2ccccc2)C(=O)C1N=Nc1ccc(N)cc1 (configuration not stated) | i
CC12CCC(C(=O)Nc3ncc([N+](=O)[O-])s3)(OC1=O)C2(C)C (configuration not stated) | 0.7
The listing continues.
SMILES | H5N1 CPE
CCOC(=O)c1c(C)c(C(=O)NCCCOC(C)C)c(C)n1C | i
COc1ccc2c(Cl)c(C(=O)NCCCn3ccnc3)sc2c1Cl | i
Cc1nc(SCC(=O)Nc2ccccc2)c2oc3ccccc3c2n1 | i
CCNc1nc(NCC)nc(N/N=C/c2ccc([N+](=O)[O-])o2)n1 | i
COc1ccc(C2=NO[C@@H]3C(=O)N(C4CCCCC4)C(=O)[C@H]23)cc1OC | 1.3
COc1cccc(-c2nc(Cc3ccc(OC)c(OC)c3)no2)c1 | 0.5
CCOC(=O)c1ccc(COC(=O)c2ccc3c(c2)-c2ccccc2C3=O)cc1 | i
CC(CN1CCNCC1)(NS(=O)(=O)c1ccccc1)c1ccccc1 (configuration not stated) | 0.7
Cc1ccc(/C=N/Nc2ncc(Cl)cc2Cl)s1 | 7.0
CCN(CC)CC(=O)NN=C(c1ccccc1)c1ccccc1 | i
O=C1OC(c2ccccc2)/C(=C(/O)c2ccc(Cl)cc2)C1=O (configuration not stated) | i
COc1ccc(Oc2nc(C)cc(C)c2C#N)cc1 | i
Cc1oc(-c2ccc(Cl)cc2)nc1CS(=O)CC(=O)NCCN1CCCC1 (configuration not stated) | 0.5
CCC(C)NC(=O)Cc1cn(C)c2ccccc12 (configuration not stated) | 1.6
COc1ccc(CC(=O)c2c(O)cc(O)cc2O)cc1OC | i
COc1ccc(CNS(=O)(=O)c2cc(OCC(N)=O)c(C)cc2Cl)cc1 | i
CC(C)Sc1nc(N2CCOCC2)c2c(c1C#N)CC(C)(C)N(C)C2 | 0.1
O=C(CCc1nc(-c2ccccc2)c(-c2ccccc2)o1)OCc1ccc(Cl)cc1 | i

Compound activity as filed in PubChem.
